Tgondii IFNg – inhibitors of Toxoplasma gondii growth with IFN-gamma | Toxoplasma gondii growth in IFN-gamma-treated host cells; active compounds read low; reference of the scale not given here | activity change, negative = inhibition, %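 (about 20 µM by stock and volumes)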 | hit rate 3.8% among 69,000;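 active means below -70%; inconclusive means fit judged invalid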;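 further: host cells are HeLa cells infected with Toxoplasma gondii; parasite growth read as luciferase light; one replicate is shown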
* hit, by the source's call; i = inactive; ? = inconclusive; & = joins results of further samples.

SMILES	Tgondii IFNg
CCN(CC)CCN1CCO[C@H]2[C@H]1CC[C@H]2OCC1CCOCC1	-28
O=C(c1cn(C2CCCCC2)nn1)N1CCc2[nH]cnc2C1c1ccncc1 (stereo unspecified)	0
Cn1cnc(C(=O)N2CCC3(CCC(=O)NC3)CC2)c1	4
CN(C)C(=O)COC[C@@]12CCO[C@H]1CCN(Cc1nccs1)C2	9
Cc1cccc(-c2nc(C)c(CCNC(=O)C(=O)Nc3cccc([N+](=O)[O-])c3)s2)c1	142
CCOc1cccc(C2c3[nH]c4ccccc4c3CCN2C(=O)c2cccs2)c1 (stereo unspecified)	i
Cn1nnc(-c2ccc(-c3ccc(N4C[C@H](CO)OC4=O)cc3F)cn2)n1	12
Cc1cccnc1C(=O)N(Cc1ccccc1Cl)C(C)C	-2
COc1cccc(-c2nnc(SCC(=O)O)n2-c2cc(C)nn2C)c1	16
CCCCCN(CCCOC)C(=O)[C@@H](CCC(=O)O)NC(=O)c1ccc(Cl)c(Cl)c1	2
O=C1CCc2cc(NS(=O)(=O)Cc3cccc(Cl)c3)ccc2N1	65
C=CCN(Cc1cnn(CC)c1)Cc1ccccc1C	14
O=C(C[C@H]1CC[C@@H](NS(=O)(=O)c2ccccc2F)[C@H](CO)O1)NCCCN1CCOCC1	11
CSCc1ccc(C(=O)N(C)Cc2cc(C(C)C)on2)o1	15
S=C(Nc1cccc(Cl)c1)N1CCC(Cn2cccc2)CC1	91
C=CCNc1ccccc1C(=O)N1CCC(C(O)Cc2ccccc2)CC1 (stereo unspecified)	9
O=C(CC1=NC(c2ccccc2O)ON1)N1CCCC1 (stereo unspecified)	12
CC(C)CCN1C2(CCN(S(=O)(=O)c3ccccc3)C2)c2ccccc2S1(=O)=O (stereo unspecified)	-17
Cc1oc(-c2ccc(NC(=O)c3ccc(C(C)(C)C)cc3)cc2)nc1Cn1cccn1	-97*
COc1ccc(-c2cc(-c3ccccc3)c(C)c(-c3ccccc3)n2)cc1	-50
CC1Oc2ccc(S(=O)(=O)Nc3ccc4c(c3)ncn4CCO)cc2NC1=O (stereo unspecified)	16
CCn1cc(C(CNC(=O)Nc2cccc(SC)c2)c2cccnc2)c2ccccc21 (stereo unspecified)	-111*
CO[C@@H]1CN(C)C(=O)c2cc(NC(=O)c3ccc(Oc4ccccc4)cc3)ccc2OC[C@H](C)NC[C@H]1C	-122*
CC(C(=O)N(C)CCc1ccccn1)N1C(=O)c2cccc3cccc1c23 (stereo unspecified)	2
NC(=O)c1cc(Cl)c(Cl)cc1C(N)=O	0
CC(=O)N1CCC2(CC1)CC(COCC1CC1)N(CC1CC1)C2 (stereo unspecified)	-1
O=C(NCc1ccccc1-n1ccnc1)[C@@H]1C[C@@H]2C=C[C@H]1C2	-1
O=C(NCc1ccc(F)cc1)Nc1ccc(-c2nc(-c3ccccc3)co2)cc1	58
c1cnc2c(-c3nccn3CCn3cccn3)cccc2c1	15
CN1CC2(CCCN(CCS(=O)(=O)c3ccccc3)CC2)OC1=O (stereo unspecified)	3
C=CC[N+]1([C@H]2C[C@H]3[C@@H]4CC[C@H]5C[C@H](O)[C@@H](N6CCOCC6)C[C@]5(C)[C@H]4CC[C@]3(C)[C@H]2OC(C)=O)CCCC1	8
Cc1nc(N2[C@@H](C#N)[C@H](c3ccccc3)[C@@H]2CO)sc1C	14
COc1ccc2c3c([nH]c2c1)[C@@H](CO)N(Cc1nccs1)CC31CCN(C(=O)C2CCCCC2)CC1	-56
CC(C)NC(=O)N(C)C[C@H]1Oc2c(NS(=O)(=O)c3cccs3)cccc2C(=O)N([C@@H](C)CO)C[C@H]1C	-13
C[C@H](CO)N1C[C@H](C)[C@@H](CN(C)S(C)(=O)=O)OCCCC[C@H](C)Oc2ccc(NC(=O)NC3CCCCC3)cc2C1=O	34
Cc1c(Cl)c(C(F)(F)F)nn1CC(=O)O	78
Cn1cc2c3c(cccc31)CN(C(=O)c1ccc(Cl)nc1)CC2	0
CNC[C@@H]1Oc2ncc(-c3cncnc3)cc2C(=O)N([C@@H](C)CO)C[C@H]1C	-56
CCOC(=O)c1cnc2ccccc2c1NCCO	13
COc1ccc(C(=O)Cn2nnc(-c3ccccc3NC(=O)c3ccc(F)cc3)n2)cc1	-15

Some of the entries so far, field by field.
CCOC(=O)c1cnc2ccccc2c1NCCO
  Tgondii IFNg: 13

O=C(NCc1ccc(F)cc1)Nc1ccc(-c2nc(-c3ccccc3)co2)cc1
  Tgondii IFNg: 58

COc1ccc(C(=O)Cn2nnc(-c3ccccc3NC(=O)c3ccc(F)cc3)n2)cc1
  Tgondii IFNg: -15

Back to the main list; the 2 compounds before the break are reprinted first.
SMILES	Tgondii IFNg
CCOC(=O)c1cnc2ccccc2c1NCCO	13
COc1ccc(C(=O)Cn2nnc(-c3ccccc3NC(=O)c3ccc(F)cc3)n2)cc1	-15
CCN(CC)C(=O)c1cc(=O)n(CC(=O)Nc2ccc(C)cc2)c2ccccc12	21
CC(C)CN1C[C@@H]2[C@@H](C1)C(=O)NC21CCN(C(=O)Nc2ccc(Cl)cc2)CC1	-109*
Cc1cccc(S(=O)(=O)N2C[C@H]3[C@@H](c4ccccc42)[C@@H](CO)N3C(=O)c2ccccc2)c1	-25
CN(C)[C@@H]1CCN(S(=O)(=O)C2CC2)[C@H]1Cc1cnn(C)c1	-47
CN(Cc1ccco1)c1nc(C(C)(C)C)nc2c1cnn2C	-60
CN(CC1Cc2ccccc2O1)c1ccc(-c2nccn2C)nn1 (stereo unspecified)	i
Cc1ccc(NC(=O)CN2CCC3(CC2)N=C(c2ccc(C)c(C)c2)C(=O)N3)cc1	94
COc1ccc2c(c1)CC(C1CCOCC1)N(C(=O)CCc1cc(OC)no1)C2 (stereo unspecified)	2
O=S(=O)(N1CCCC1)N1CCn2cncc2C1	5
CCOCc1cnc2n1CCN(C(=O)COc1ccccc1)C2C (stereo unspecified)	-6
Cc1noc(-c2ccc(-n3ncc(C(=O)NCCc4c[nH]c5ccccc45)c3C)nc2)n1	136
O=C(c1ccccn1)N1CCC2(CCC(C(=O)N3CCCC3)O2)CC1 (stereo unspecified)	2
CCS(=O)(=O)N1CCC2(CC1)OC(=O)C(C)=C2C(=O)Nc1ccc(F)cc1F	8
CCn1c(C)cc(C)c(C(=O)N2C[C@@H]3C4CCC(CC4)[C@@H]3C2)c1=O	1
CCOc1ccccc1NC(=O)Nc1ccc(-c2nc(-c3ccc(C)cc3)co2)cc1	-39
COc1cccc(-n2cc(CN(C)Cc3cc(-c4ccccc4)no3)cn2)c1	-1
Cc1ccccc1NC(=O)C(Cc1c[nH]c2ccccc12)NC(=O)OCC(C)C (stereo unspecified)	8
Cc1ccc(C2=NC3(CCN(CC(=O)Nc4cccc(Cl)c4)CC3)NC2=O)cc1C	14
c1ccc(CCCN2CCCN(Cc3cc4n(n3)CCCNC4)CC2)cc1	-40
CCOc1ccc(N(Cc2nc(-c3ccc(C)cc3)oc2C)S(=O)(=O)c2cccs2)cc1	-69
CC(=O)c1cccc(NC(=O)CSc2nnnn2C2CCCC2)c1	16
CC1=C(C(=O)Nc2ccc(Cl)cc2)C2(CCN(Cc3ccccc3)CC2)OC1=O	-30
Cc1ccccc1-c1noc(CN[C@@H]2c3ccccc3C[C@@H]2O)n1	38
Cc1ccc(NC(=O)CC(=O)NC(CCO)c2ccc(C)cc2)cc1 (stereo unspecified)	45
COc1ccccc1CNC(=O)CCC1N=C2c3ccccc3N=C(SCc3ccccc3Cl)N2C1=O (stereo unspecified)	-44
Cc1ccsc1C(=O)N1C[C@@H](C)[C@]2(CCN(c3cccnc3)C2=O)C1	-61
O=C(c1ccccn1)N1CCC(c2cc(-c3ccccc3Cl)n[nH]2)CC1	-9
Clc1ccc(C2=NC(c3ccc4c(c3)OCO4)N=C(c3ccc(Cl)cc3)S2)cc1	6
CC1(C)O[C@@H]2C[C@H]3[C@@H]4CCC5=CC(=O)C=C[C@]5(C)[C@H]4[C@@H](O)C[C@]3(C)[C@]2(C(=O)CO)O1	-24&18
Cc1cccc(/N=c2\scc(-c3ccco3)n2-c2ccccc2)n1	21
CO[C@H]1CN(C)C(=O)c2cc(NC(=O)c3ccc(F)cc3)ccc2OC[C@@H](C)N(C(=O)CC2CC2)C[C@H]1C	58
COc1ccc2c(c1)C(C(=O)NCc1cnn3ccccc13)CC(=O)N2 (stereo unspecified)	-7
CCN1c2ccc(F)cc2C(=O)NC12CCN(C(=O)Cc1ccc(Cl)cc1)CC2	11
O=C(CC1CCCCC1)N1CCC2(CC1)Nc1ccc(Cl)cc1-n1cccc12	-35
COc1ccc(C2NCCC3(O)CCCCC23)c(OC)c1OC (stereo unspecified)	17
CCCCNC(=O)CCC1N=C2c3ccccc3N=C(SCc3ccc(Cl)cc3)N2C1=O (stereo unspecified)	-21
CCc1cc(CN2CCCC2c2nc3ccc(C)cc3[nH]2)on1 (stereo unspecified)	9
CC[C@H]1OC(=O)[C@H](C)[C@@H](O[C@H]2C[C@@](C)(OC)[C@@H](O)[C@H](C)O2)[C@H](C)[C@@H](O[C@@H]2O[C@H](C)C[C@H](N(C)C)[C@H]2O)[C@](C)(O)C[C@@H](C)CN(C)[C@H](C)[C@@H](O)[C@]1(C)O	27
NC1(C(=O)NCCC2CN(Cc3ccco3)CCO2)CCCC1 (stereo unspecified)	3
CC(=O)Nc1ncc(S(=O)(=O)NCc2ccc3[nH]c(C)c(C)c3c2)s1	10

Molecules shown so far with a furan ring, fused or not:
SMILES	Tgondii IFNg
CSCc1ccc(C(=O)N(C)Cc2cc(C(C)C)on2)o1	15
CN(Cc1ccco1)c1nc(C(C)(C)C)nc2c1cnn2C	-60
Cc1cccc(/N=c2\scc(-c3ccco3)n2-c2ccccc2)n1	21
NC1(C(=O)NCCC2CN(Cc3ccco3)CCO2)CCCC1 (stereo unspecified)	3

(more compounds)
SMILES	Tgondii IFNg
CN1CCN(c2ccc3ccc(C(=O)NCC(=O)N(C)C)cn23)CC1	-1
Cc1noc(C)c1S(=O)(=O)N(C)C[C@@H]1OCCCC[C@H](C)Oc2ccc(NC(=O)CCC(F)(F)F)cc2C(=O)N([C@H](C)CO)C[C@@H]1C	?
CCCC(=O)N[C@@H]1c2ccccc2[C@@H]2CN(C(C)=O)C[C@@H]12	9
COc1ccc(C(=O)Nc2ccc3c(c2)C(=O)N(C)[C@@H]2CC[C@@H](CC(=O)NCC4CC4)O[C@@H]2CO3)cc1	-13
N#Cc1cccc(-c2ccc([C@H]3[C@H]4CN(Cc5ccccc5F)CCCCN4[C@H]3CO)cc2)c1	-33
O=C(C[C@H]1CC[C@@H]2NC[C@H](O)COC[C@H]2O1)NCCc1ccncc1	-28
Clc1ccc(CSc2nnc(COc3ccc(Cl)cc3)o2)cc1	-14
CCn1c(=O)c(-c2nc(-c3ccc(OC)c(F)c3)no2)c(O)c2ccccc21	11
COC(=O)c1cc(C)nc2c1c(=O)nc(SCc1nc(-c3ccccc3)oc1C)n2C1CC1	i
COc1ncccc1-c1nc(C)ncc1-c1ccsc1	-14
COc1cc(N2CCc3ccc(=O)n(CCN(C)C)c3CC2)ncn1	210
CCCNC(=O)N1CC2(C1)[C@H](c1ccccc1)[C@@H](CO)N2Cc1ccc(Cl)cc1	42
Cc1cnc(C(=O)N2CCCn3c(nc(CN(C)C)cc3=O)C2)cn1	5
Cc1ccc2c(c1C)-n1cccc1C1(CCN(S(=O)(=O)c3ccccc3)CC1)N2	12
COCCN1C(=O)CCc2cc(NS(=O)(=O)c3ccc4c(c3)OCCO4)ccc21	88
COc1ccc(C2NC(C(=O)O)CS2)cc1O (stereo unspecified)	7
Cc1ccc(C(=O)Nc2ccc(NC(=O)CCN3CCCO3)cc2)o1	-49
CCN(CC)C(=O)c1cc(=O)n(CC(=O)Nc2cccc(C)c2)c2ccccc12	8
COc1ccc(CNC(=O)CC2N=C3c4ccccc4N=C(SCc4ccc(C)cc4)N3C2=O)cc1 (stereo unspecified)	-21
CN(C)CCOc1ccc(Cl)cc1C(C)(C)C	-3
Cc1ccc(S(=O)(=O)Nc2cncc(C(=O)Nc3ccc(Cl)cc3)c2)c(C)c1	-6
OC(c1ccccn1)C1CCN(Cc2ccc3[nH]ccc3c2)CC1 (stereo unspecified)	-25
COC(=O)CCn1cc(CN2CCCN(c3ccc(F)cc3)CC2)cn1	11
CC1=CC(C)(C)N=C(SCc2c(F)cccc2Cl)N1c1cc(Cl)cc(Cl)c1	-9
CC(C)CNC(=O)c1cc(-c2ccn(CC3CC3)n2)n2ccccc12	-64
COc1ccccc1OC1CN(C(=O)c2cn3ccsc3n2)C1	-2
Cc1ccc(C(C)N2CCN(CC(=O)N3CCCC(c4csnn4)C3)CC2)cc1 (stereo unspecified)	-17
CCN(CC)Cc1cn2c(n1)CN(C(=O)c1cnc(C)cn1)CC2	-50
Cn1nc(C2CCN(c3ccc(C(N)=O)cn3)CC2)n(Cc2ccccc2)c1=O	49
Cc1cccc(-c2nc(Cn3nnc(-c4nc(-c5cccc(F)c5)no4)c3C)c(C)o2)c1	-9
COc1nc(N)c(C#N)c(-c2ccc(Cl)cc2Cl)c1C#N	-33
O=C(c1cn[nH]c1-c1cccc(F)c1)N1C[C@@H]2[C@@H]3CC[C@@H](C3)[C@@H]2C1	8
O=C(c1coc(-c2ccccc2)n1)N1CCCN(Cc2noc(-c3ccccc3)n2)CC1	-6
Nc1c(C(=O)O)sc2cc(C(F)(F)F)cnc12	96
COc1ccc(F)c(-c2cnc(-n3cnnc3)cc2C)c1	-81*

Quoted at random: two compounds from above
SMILES	Tgondii IFNg
Cc1ccc(C(C)N2CCN(CC(=O)N3CCCC(c4csnn4)C3)CC2)cc1 (stereo unspecified)	-17
CC(C)CNC(=O)c1cc(-c2ccn(CC3CC3)n2)n2ccccc12	-64

An excerpt; the hit share may differ from the screen's.
